# Compound activity deposited in PubChem BioAssay by NMMLSC.
# Autofluor counter: counter-screen for toxin protease inhibitors: compound fluorescence. AID 624483. compound autofluorescence counterscreen, microsphere flow cytometry; active compounds read high. fluorescence intensity (test concentration not listed). 360,000 tested, 3.1% active;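 active = at least 3 SD above the mean of all compounds, about 16000 in these data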;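 note: 100 nL of 1 mM stock went into each well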
# * = called active by the depositor. These rows are one share of the data. The share of hits here may be higher or lower than overall.
SMILES,Autofluor counter
O=C(Nc1ccc(N2CCOCC2)cc1)c1csc([C@@H]2O[C@H](CO)[C@H](O)[C@H](O)[C@H]2O)n1,2971
Oc1cccc(-c2sc3ccccc3c2-c2ccc(OCCN3CCCCC3)cc2)c1,5260
CCCNC(=O)C1(C)CCCN(C(=O)COc2ccc(C(C)(C)C)cc2)C1 (stereo unspecified),3818
COc1ccccc1Cc1c(-c2ccc(OC)c(OC)c2)nc2c3ccccc3ccn12,6394
CC(C)C[C@@H]1COc2cc(N(C)CCO)ccc2S(=O)(=O)N1,6029
Cc1ccnc(NCc2cc(Cl)cc(Cl)c2O)c1,3977
CCOC(=O)C1(C)CCCCN1C(=O)c1cccc(Cl)c1 (stereo unspecified),3747
CCOC1=C2[C@H](c3cccs3)N(S(=O)(=O)c3ccc(C)cc3)C[C@H]2n2c(=O)n(-c3ccccc3)c(=O)n2C1,4300
Nc1ccn([C@@H]2O[C@H](CNCc3cc(Br)ccc3OCc3ccccc3)[C@@H](O)[C@H]2O)c(=O)n1,3920
O=C(NCc1ccncc1)[C@@H]1CCCN1C(=O)[C@@H]1CCCN1C(=O)c1cccs1,5679

# The final six compounds of the section above lead into the next:
SMILES,Autofluor counter
CC(C)C[C@@H]1COc2cc(N(C)CCO)ccc2S(=O)(=O)N1,6029
Cc1ccnc(NCc2cc(Cl)cc(Cl)c2O)c1,3977
CCOC(=O)C1(C)CCCCN1C(=O)c1cccc(Cl)c1 (stereo unspecified),3747
CCOC1=C2[C@H](c3cccs3)N(S(=O)(=O)c3ccc(C)cc3)C[C@H]2n2c(=O)n(-c3ccccc3)c(=O)n2C1,4300
Nc1ccn([C@@H]2O[C@H](CNCc3cc(Br)ccc3OCc3ccccc3)[C@@H](O)[C@H]2O)c(=O)n1,3920
O=C(NCc1ccncc1)[C@@H]1CCCN1C(=O)[C@@H]1CCCN1C(=O)c1cccs1,5679
CCN(CC)C(=O)c1ccc(Cc2cn(C)c3ccccc23)nc1,3490
COc1ccc(CCNC(=O)Nc2ccc3nc([C@@H]4O[C@H](CO)[C@@H](O)[C@H](O)[C@H]4O)[nH]c3c2)cc1Br,5404
CNCC(=O)c1ccc(O)c(O)c1,4379
COc1ccc(CCNC(=O)c2cc(S(=O)(=O)N3CCc4ccccc43)ccc2F)cc1OC,3532
O=C(NCc1ccc(F)cc1)c1cc(C2CCCCN2C(=O)c2ccc3c(c2)CCO3)on1 (stereo unspecified),3815
Cc1ccc2nc(C(C)(C)C)c(Cc3ccsc3)n2c1,9168
CC(C)NC(=O)N1Cc2cc(C(=O)NC3CCCC3)nc(-c3cccc(-c4cccnc4)c3)c2[C@@H]1CCO,6476
Cc1ccccc1N(CC(=O)N1CCN(Cc2ccccc2)CC1)S(C)(=O)=O,3474
O=C1C=C(c2ccc(CO)cc2)C[C@@H](c2ccc(F)cc2)C1,3537
Cc1cccc(NC(=O)COC(=O)CN2C(=O)c3ccccc3C2=O)c1C,3491

# Overlap with the part before: 2 entries; new compounds follow.
SMILES,Autofluor counter
O=C1C=C(c2ccc(CO)cc2)C[C@@H](c2ccc(F)cc2)C1,3537
Cc1cccc(NC(=O)COC(=O)CN2C(=O)c3ccccc3C2=O)c1C,3491
C[C@@H]1CN([C@H](C)CO)C(=O)CCCn2cc(nn2)CO[C@H]1CN(C)C(=O)Nc1cccc(Oc2ccccn2)c1,2900
CC(S(=O)(=O)c1ccccc1)S(=O)(=O)c1ccccc1,3854
O=C(NCc1ccco1)c1ccc(CS(=O)c2ccccc2Cl)o1 (stereo unspecified),2808
CCOC(=O)C1(C)CCN1C(=O)c1ccccc1Br (stereo unspecified),3298
O=C(NCc1ccccc1)c1cc(C2CCCN(C(=O)CCCc3ccccc3)C2)on1 (stereo unspecified),3625
Cn1ccc2c(-c3ccc(C(C)(C)C)cc3)cc3c(c21)C1CCC3C1 (stereo unspecified),5412
N#Cc1ccsc1NC(=O)CSc1nnc(NC2CC2)s1,3625
COc1ccc(NC(=O)c2cc(C3CCCCN3S(=O)(=O)c3cn(C)cn3)on2)c(C)c1 (stereo unspecified),2959
O=C1NC[C@@H](CCCCN2CCN(CCc3ccccc3)C(=O)C2=O)N(Cc2ccccc2)C1=O,5272
CCOC(=O)N1CCN(S(=O)(=O)N2CCCC(C(=O)NCc3cc(Br)ccc3OC)C2)CC1 (stereo unspecified),3805
CC(=O)Nc1ccc2c(=O)n(-c3ccccc3)sc2c1,3450
CCc1nc2c(OCCOc3ccc(F)cc3)cccn2c1N(C)C(=O)c1cccs1,4023
OC(c1ccccc1)c1nc(-c2cccc3cccnc23)cs1 (stereo unspecified),3550
Cc1ccnc(NCc2cc(Cl)ccc2O)c1,3885
Cc1ccc(Cc2c(-c3cccc(Br)c3)nc3cc(C)c(Br)c(C)n23)cc1,6223
CC1(Cc2ccccc2OC(F)(F)F)C(=O)Nc2cc(-c3ccccc3Cl)ccc21 (stereo unspecified),3758
OC(c1ccc(Cl)c(F)c1)c1ncc(-c2ccc(Oc3ccccc3)cc2)[nH]1 (stereo unspecified),3750
CC(=O)Nc1cccc(C(=O)OCC(=O)NC(=O)NC2CCCC2)c1,2931
CC1N=C(SCC(=O)c2ccc(F)cc2)N2C(C)N=C(SCC(=O)c3ccc(F)cc3)N12 (stereo unspecified),3744
C[C@@H]1CN([C@H](C)CO)C(=O)CCCn2nncc2CO[C@H]1CN(C)S(=O)(=O)c1ccc(C#N)cc1,3905
CN(C(=O)C1CC1)c1ccccc1,3439
CC(C)[C@H](NC(=O)[C@@H]1Cc2c([nH]c3ccccc23)C2c3ccccc3C(=O)N21)C(=O)N1CCC[C@H]1C(=O)O (stereo partly specified),5766
NS(=O)(=O)c1ccc(CCNc2nn3c(-c4ccc(F)c(Cl)c4)cnc3s2)cc1,3576
Cc1ccccc1CNC(=O)c1ccc2nc([C@@H]3O[C@H](CO)[C@H](O)[C@H](O)[C@H]3O)[nH]c2c1,3617
CC(C)C#Cc1ccc2c(c1)O[C@@H](CN(C)C(=O)c1cnccn1)[C@@H](C)CN([C@@H](C)CO)S2(=O)=O,3749
C=C[C@]1(C)C=C2C(=O)C[C@H]3C(C)(C)CCC[C@]3(C(=O)O)[C@@]2(O)CC1,5906
CCCCn1nnnc1C(c1ccccc1)N1CCN(Cc2c(F)cccc2Cl)CC1 (stereo unspecified),5415
C[C@@H]1CCCCO[C@@H](CN(C)S(=O)(=O)c2ccc(F)cc2)[C@@H](C)CN([C@H](C)CO)C(=O)c2cc(NC(=O)c3ccccc3)ccc2O1,3841
CCN(CC)CCNc1c(C)cc(CO)c(Cl)c1C,2959
Cc1ccc(C2C=CC(C#N)=CN2Cc2ccccc2)cc1 (stereo unspecified),6828
COc1ccc(CCN2C(=O)COc3ccccc3C2C(=O)Nc2ccc3c(c2)OCCO3)cc1OC (stereo unspecified),5765
CN(C)C(CNC(=O)c1cccc(S(=O)(=O)N2CCc3ccccc3C2)c1)c1ccccc1 (stereo unspecified),4067
COC(=O)[C@]12CCCCC=C1N(Cc1ccc(Cl)cc1Cl)C(=O)[C@H](CC(=O)NCc1ccc(C)o1)C2,5946
Cc1ccc(NC(=O)CN(C2=NC3CS(=O)(=O)CC3S2)c2ccccc2)cc1 (stereo unspecified),6026
O=C(Nc1cccc(F)c1)Nc1nnc([C@@H]2O[C@H](CO)[C@@H](O)[C@H]2O)s1,3759
COc1ccc(N2CCN(C(=O)/C=C/[C@H]3O[C@@H](n4ccc(=O)[nH]c4=O)[C@H](O)[C@@H]3O)CC2)cc1,5573
CC(C)=CCC[C@H](C)C[C@@H]1Cc2[nH][nH]c(=O)c2[C@H](c2ccc(Cl)cc2)O1,5807
COc1cccc(-c2nc3nc(C)cc(C)n3c2NC2CCCCC2)c1,7484
CCCC(=O)N1CCC1(C)C(=O)Nc1cc(C)ccc1C (stereo unspecified),3708
COc1ccc(NC(=O)c2cc(C3CCCCN3S(=O)(=O)c3ccc(C#N)cc3)on2)c(C)c1 (stereo unspecified),3697

# Given bar-delimited: three of the compounds above.
canonical_smiles | Autofluor counter
CN(C)C(CNC(=O)c1cccc(S(=O)(=O)N2CCc3ccccc3C2)c1)c1ccccc1 (stereo unspecified) | 4067
COC(=O)[C@]12CCCCC=C1N(Cc1ccc(Cl)cc1Cl)C(=O)[C@H](CC(=O)NCc1ccc(C)o1)C2 | 5946
Cc1ccc(NC(=O)CN(C2=NC3CS(=O)(=O)CC3S2)c2ccccc2)cc1 (stereo unspecified) | 6026

# (listing goes on)
SMILES,Autofluor counter
Cc1ccc(S(=O)(=O)N=N/C=C2\C=CC=CN2O)cc1,4034
O=S1(=O)CC(N2CCN(Cc3ccccc3F)CC2)CN1Cc1cn(Cc2cccc(Cl)c2)nn1 (stereo unspecified),4334
O=C(NCc1ccccc1)c1ccc(S(=O)(=O)N2CCCCCC2)cc1,3984
O=C(Nc1cccc(F)c1)c1ccc(-c2cccnc2)c2ccoc12,3071
CC1(Cc2cccc(F)c2)C(=O)Nc2ccc(S(=O)(=O)NC3CCCCC3)cc21 (stereo unspecified),4156
CC(=O)N1c2ccccc2Sc2ccc3ccccc3c21,3711
O=C(CN1C(=O)NC2(CCc3ccccc32)C1=O)NC1CCCCC1 (stereo unspecified),3420
Cc1cc2nc(-c3nnnn3-c3c(C)cccc3C)c(=O)[nH]c2cc1C,5874
C[C@H]1CCCCO[C@@H](CN(C)S(=O)(=O)c2ccc(Cl)cc2)[C@@H](C)CN([C@@H](C)CO)C(=O)c2cc(NS(=O)(=O)c3ccccc3)ccc2O1,3775
CC1=C(C(=O)N(C)C)CC(CC(=O)NC2CCCC2)C(=O)N1Cc1ccc(F)cc1 (stereo unspecified),3538
O=C(Nc1cccc(C(F)(F)F)c1)C1Cc2c(-c3ccccc3Oc3ccccc3)ccnc2O1 (stereo unspecified),2818
CCn1c2ccccc2c2cc(NC(=O)N3CCCCC3)ccc21,3581
Cn1nc(NC(=O)C(F)(F)F)c2ncc(-c3ccccc3)nc21,3945
CCCCn1c(NCc2ccc(OC)cc2O)nc2ccccc21,3442
CC(C)(C)S(=O)N1Cc2cc(C(=O)N3CCc4ccccc4C3)nc(-c3cccc(-c4cccnc4)c3)c2[C@@H]1CCO (stereo partly specified),5867
COc1ccc(S(=O)(=O)N2CCCCCC2)cc1NC(=O)CCNC(=O)c1ccccc1Cl,3883
COc1ccc(-c2ccc(C(=O)N3CCN(C)CC3)c3occc23)c(C)c1,2770
CC(C)C[C@@H](CN1CCCC1CN1C(=S)NC[C@@H]1Cc1ccccc1)N1C[C@H](Cc2ccccc2)N(CC2CCCCC2)C1=S (stereo partly specified),5967
O=C(NCCc1ccccc1)c1ccc(S(=O)(=O)N2CCCCC2)cc1,3471
C[C@@H]1CCCCO[C@@H](CN(C)S(=O)(=O)c2cccs2)[C@@H](C)CN([C@H](C)CO)C(=O)c2cc(NS(=O)(=O)c3ccccc3)ccc2O1,3459
O=C(COC(=O)C1=COCCO1)NCc1ccc(Cl)cc1Cl,2956
CC(N)c1csc(Nc2ccc(C(=O)NCCCO)cn2)n1 (stereo unspecified),3804
CC(C)N(C)c1ncnc2c1ncn2[C@H]1CN(Cc2ccc(Cl)cc2)C[C@@H](CO)O1,3621
COc1ccc(CN2C[C@@H](CO)O[C@@H](n3cnc4c(N5CCN(CCO)CC5)ncnc43)C2)cc1,3595
CCNC(=O)C1(C)CCCN1C(=O)c1cc(OC)c(OC)c(OC)c1 (stereo unspecified),3051
CN(C(=O)COc1ccccc1)c1ccc([N+](=O)[O-])cc1,3696
O=C(NCc1cccnc1)c1cc(C2CCCN(C(=O)c3cccs3)C2)on1 (stereo unspecified),3441
COc1cc(CNc2ncnc3c2ncn3[C@H]2CN(Cc3cccc(C(F)(F)F)c3)C[C@@H](CO)O2)cc(OC)c1OC,3797
CC(O)(c1cccnc1)c1nc(-c2cccc(F)c2)cs1 (stereo unspecified),3483
CCOC(=O)C1=C[C@@H](CC)N(S(=O)(=O)c2ccc([N+](=O)[O-])cc2)[C@H]1c1ccccc1,5189
COc1cc(S(=O)(=O)n2ccc(C)n2)c(C)cc1C,3028
Cc1ccc(S(=O)(=O)N2C[C@]3(O)C[C@@H]4C(=O)N(c5ccccc5)C(=O)[C@@H]4C[C@]3(OC(=O)Nc3cccs3)C2)cc1,3537
C[C@@H]1CN([C@H](C)CO)C(=O)c2cc(Br)cnc2O[C@H]1CN(C)C(=O)Cc1ccccc1,3727
CC(=O)NC(c1ccccc1)c1nc(-c2ccc(C)c(C)c2)cs1 (stereo unspecified),4006
CCc1ccc(NC(=O)c2ccc3c(c2)CCN3S(C)(=O)=O)cc1,3648
O=C(NCC(O)c1nc2ccccc2[nH]1)c1ccc(Br)cc1 (stereo unspecified),5433
CC(=O)Nc1cc(-c2cccc(C(=O)N(C)C)c2)cn2c(-c3cccc(C(=O)N(C)C)c3)cnc12,3734
CCCCCN1C(=O)c2ccccc2[C@@]2(C(=O)OCC)Cc3cc(Cl)ccc3[C@@H]12,5676
COc1ccc([C@H]2CC(=O)C[C@@H](CCn3ccnn3)O2)cc1,4087
COc1ccc(-c2cc(NC(C)=O)c3ncc(-c4ccccc4)n3c2)cc1OC,2877
Cc1noc(C)c1-c1ccc(C(=O)NCc2ccco2)c2occc12,3845
CCOC(=O)C1(C)CCN1C(=O)c1cncc(Br)c1 (stereo unspecified),3718
COc1ccccc1-c1cc2nc(NCCc3ccncc3)ccn2n1,2981
COc1cccc(CN(C)C(=O)c2cccc(S(=O)(=O)N3CCN(c4ccccc4)CC3)c2)c1,2957
COc1ccc(-c2cnc3c(NC(C)=O)cc(-c4ccccc4OC)cn23)cc1OC,3817
CC(C)Cc1ccc(-c2cc3nc(NCCc4ccc(S(N)(=O)=O)cc4)ccn3n2)cc1,4177
O=C(NCc1cccnc1)c1cc(C2CCCCN2S(=O)(=O)c2ccc(F)cc2F)on1 (stereo unspecified),3517
O=S1(=O)CC(N2CCCC2)CN1Cc1cn(Cc2cccc(C(F)(F)F)c2)nn1 (stereo unspecified),5007
CCc1ccc([C@H]2[C@@H]3C(=O)C[C@@H]4C(=O)N(Cc5ccccc5)C(=O)[C@@H]4[C@@H]3CN2S(=O)(=O)c2ccc(C)cc2)cc1,6722
COc1ccccc1-c1cc(NC(C)=O)c2ncc(-c3cccc(C(C)=O)c3)n2c1,3776
